Bioassay records deposited in PubChem BioAssay by National Center for Advancing Translational Sciences (NCATS).
Cruzain Triton – cruzain (T. cruzi) inhibition with detergent; purified cruzain, Z-FR-AMC fluorescence, 0.01% Triton; Potency, µM, inactives show max response, negative = inhibition, most hits filed as inhibitors; actives 0.43% (n = 200,000); AID 1478;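 further: plate controls were neutral wells for no effect and buffer without enzyme for full effect; nearly all actives have a fitted effect of over 40% in size; top concentration of the series not given in the record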
Target sequence (P25779 123-467 limits assumed): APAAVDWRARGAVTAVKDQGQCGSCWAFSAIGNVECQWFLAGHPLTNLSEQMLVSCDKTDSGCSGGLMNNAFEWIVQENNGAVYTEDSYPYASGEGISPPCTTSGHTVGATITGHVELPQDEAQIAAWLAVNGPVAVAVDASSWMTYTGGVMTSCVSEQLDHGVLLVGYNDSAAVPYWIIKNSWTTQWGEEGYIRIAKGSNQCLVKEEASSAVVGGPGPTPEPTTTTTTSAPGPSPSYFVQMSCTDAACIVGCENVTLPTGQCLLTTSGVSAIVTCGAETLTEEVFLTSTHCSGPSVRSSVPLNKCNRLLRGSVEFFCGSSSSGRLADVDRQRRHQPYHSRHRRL
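Purified cruzain (1.5 nM final) was preincubated with compounds for 15 min at room temperature in 100 mM sodium acetate pH 5.5, 5 mM DTT, 0.01% Triton X-100. Reaction started with 2 uM Z-FR-AMC; AMC fluorescence change over 60 s gave activity.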
Cruzain noTriton – inhibitors of Trypanosoma cruzi cruzain without detergent. AID 1476. P25779. purified cruzain, Z-FR-AMC fluorescence, no detergent. actives 2.3% (n = 200,000). Potency, µM, without a hit: max response, negative = inhibition, usual class: inhibitors;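 further: plate controls were enzyme without inhibitor for no effect and buffer without enzyme for full effect; nearly all actives have a fitted effect of over 40% in size; top concentration of the series not given in the record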
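Purified cruzain at 1.5 nM, pre-incubated 15 min with compound at room temperature in 100 mM sodium acetate pH 5.5, 5 mM DTT, 0.00005% Triton X-100. Reaction started with 2 uM Z-FR-AMC; AMC fluorescence increase over 60 s gives rate.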
* = called active by the depositor; ? = inconclusive; & = joins results of further samples. The call rests on the fitted dose curve; in most records, active means well fitted curve in the direction sought with a large enough effect; inconclusive means small, poorly fitted or top-dose-only effect, or another doubt; inactive means no such curve, though single readings can be large; an effect the other way counts as inactive or inconclusive. Potency means the concentration at half of the fitted maximal effect.

SMILES	Cruzain Triton	Cruzain noTriton
O=C(NCc1nc2ccccc2[nH]1)[C@H]1C[C@@H]1[C@H](NP(=O)(c1ccccc1)c1ccccc1)c1ccccc1	-0.4%	-5.5%
CC(=O)N[C@@H]1CCSC1=O	1.5%	-5.4%
O=[N+]([O-])OC1CO[C@H]2C(O[N+](=O)[O-])COC12 (some centres not stated)	0.7%	2.1%
CNC(=O)O/N=C/C(C)(C)S(C)=O (configuration not stated)	1.3%	0.3%
N#Cc1ccc(C23CC4(C2)[C@H](CN(Cc2cccnc2)[C@@H]4c2ccccc2)C3c2ccc(C(F)(F)F)cc2)cc1 (some centres not stated)	-0.4%	?
COC(=O)C1(C(=O)OC)CC2=C[C@H](CC2=O)Cc2ccccc2[C@@H]1C[N+](=O)[O-]	-1.0%&3.9%	-8.9%&-2.4%
CC1(O)C(=O)C=C2C=C(C3CC3)OC=C2C1=O (configuration not stated)	-1.1%	10.2%
CNC(=O)[C@H](C)/C=C/C(NC(=O)OCc1ccccc1)c1ccc(C(=O)OC)cc1 (some centres not stated)	-2.0%	-3.6%
CCN(CC)CCCCn1c(-c2ccccc2)nc2c(NC3CCCCC3)nc(C)nc21	-4.4%	-7.5%
CCCCCCCC/C=C\CCCCCCCC(=O)NCC(=O)O	5.2%	-4.1%
COc1ccc(Cl)cc1-c1ccc(C(=O)O)o1	-2.3%	-1.5%
C=C(C(C)=O)C(O)c1cccc(Br)c1 (configuration not stated)	4.5%	3.8%
COc1ccc(/C=C/C2=C[C@]3(C)C[C@]2(C)[C@H](c2ccc(OC)cc2)CC3=O)cc1	6.0%	14.7%
C=C1c2ccccc2O[C@H](C(=O)OCC)[C@@H]1CC(C)(C)c1ccccc1	0.5%	-4.7%
COC(=O)[C@@]1(Cc2ccccc2)[C@H]2c3cc(C(=O)N(C)C)n(CCO)c3C[C@H]2CN1C(=O)c1ccccc1	-0.3%	?
COC(=O)[C@@H]1C[C@H]1[C@@H](NC(=O)Oc1ccc(F)cc1)c1ccccc1	-3.7%	-2.1%
O=C(NCc1cc(F)cc2c1OCCO2)[C@H]1C[C@@H]1[C@H](NP(=O)(c1ccccc1)c1ccccc1)c1ccccc1	-3.1%	-0.3%
c1ccc(CNc2oc(-c3ccccc3)nc2-c2ccccc2)cc1	-1.2%	-9.5%
O=c1cc(-c2ccc(O)c(O)c2)oc2cc(OC3OC(CO)C(O)C(O)C3O)cc(O)c12 (configuration not stated)	-17.2%	-8.0%
CC(C)(C)[Si](C)(C)c1c2c(nc3ccc(OCc4ccccc4)cc13)-c1cccc(=O)n1C2	-7.1%	-4.6%
CCCn1c(-c2ccc(F)cc2)nc2c(NCCCN(C)C)nc(C)nc21	4.0%	5.8%
O=C(OCC1CO1)C1CCCCC1C(=O)OCC1CO1 (configuration not stated)	-3.6%	?
COC(=O)[C@@H]1C[C@@H]2CC[C@@H](O)C[C@@H]2N1Cc1ccc(-c2ccccc2)cc1	-4.5%	9.0%
CCCCNC(=O)C(c1ccc(OCC(=O)OC)c(C(=O)OC)c1)N(Cc1ccccc1)C(=O)CCCCCN1C(=O)NC(c2ccc(-c3ccccc3)cc2)C(C(=O)OCc2ccccc2)=C1C (configuration not stated)	-23.0%	-8.2%
CC(/C=C/C(=O)NO)=C\[C@@H](C)C(=O)c1ccc(N(C)C)cc1	-5.4%	-9.4%
O=C(/C=C/c1ccc(O)cc1)c1cccs1	4.9%	5.7%
C[C@H](N)[C@H](O)c1ccc(O)c(O)c1	-4.4%	-9.4%
CC(C)C[C@@H](CC(=O)N[C@@H](CCC(=O)O)CC(=O)O)NC(=O)[C@@H]1CCCC[C@H]1NC(=O)C[C@H](CCCN)NC(=O)C[C@H](Cc1ccccc1)NC(=O)[C@@H]1CCCC[C@H]1N	1.2%	14.3%
COC(=O)[C@@H]1C[C@@H]2CC[C@@H](O)C[C@@H]2N1Cc1ccc(C)s1	-0.5%	-3.4%
Cc1ccc2[nH]c(C)cc(=O)c2c1	-2.1%	-0.2%
[N-]=[N+]=CC(=O)OCC(N)C(=O)O (configuration not stated)	5.6%	-12.1%
O=S(=O)(Cc1ccccc1)c1nnnn1C1CCCCC1	4.5%	-1.3%
C[C@@H]1Cc2c(Cl)cc(C(=O)N[C@@H](Cc3ccccc3)C(=O)O)c(O)c2C(=O)O1	-15.6%	3.7%
CCCCC/C=C\C/C=C\C/C=C\CCCCCCC(=O)NCCCC(=O)O	-1.5%	-3.1%
c1ccc2c(c1)ccc1cc3c(ccc4ccccc43)cc12	4.2%	-10.3%
CC(=O)[C@@H]1[C@H]2[C@H](C(=O)[C@H]3OC[C@@H]2O3)[C@H]2C=Cc3ccccc3N21	-3.8%	?
CC[C@@H]1C(c2cccc(Cl)c2)=NN(c2ccccc2)[C@H]1C(=O)N1CCOC1=O	-0.7%	-29.9%
COC(=O)[C@H](Cc1ccccc1)NC(=O)O[C@H]1C(=O)c2cc(OC)ccc2O[C@@H]1c1ccc(OC)c(Br)c1	-3.4%&7.8%	?
O=C(O)c1ccc(CO)o1	5.2%	-2.4%
COC(=O)C1(C)C=CC2(CCCCC2)N1C(=O)c1ccccc1 (configuration not stated)	-1.3%	-5.3%

Structures from the list above containing nitrogen in an aromatic ring (9):
SMILES	Cruzain Triton	Cruzain noTriton
O=C(NCc1nc2ccccc2[nH]1)[C@H]1C[C@@H]1[C@H](NP(=O)(c1ccccc1)c1ccccc1)c1ccccc1	-0.4%	-5.5%
N#Cc1ccc(C23CC4(C2)[C@H](CN(Cc2cccnc2)[C@@H]4c2ccccc2)C3c2ccc(C(F)(F)F)cc2)cc1 (some centres not stated)	-0.4%	?
CCN(CC)CCCCn1c(-c2ccccc2)nc2c(NC3CCCCC3)nc(C)nc21	-4.4%	-7.5%
COC(=O)[C@@]1(Cc2ccccc2)[C@H]2c3cc(C(=O)N(C)C)n(CCO)c3C[C@H]2CN1C(=O)c1ccccc1	-0.3%	?
c1ccc(CNc2oc(-c3ccccc3)nc2-c2ccccc2)cc1	-1.2%	-9.5%
CC(C)(C)[Si](C)(C)c1c2c(nc3ccc(OCc4ccccc4)cc13)-c1cccc(=O)n1C2	-7.1%	-4.6%
CCCn1c(-c2ccc(F)cc2)nc2c(NCCCN(C)C)nc(C)nc21	4.0%	5.8%
Cc1ccc2[nH]c(C)cc(=O)c2c1	-2.1%	-0.2%
O=S(=O)(Cc1ccccc1)c1nnnn1C1CCCCC1	4.5%	-1.3%

Going on with the list:
SMILES	Cruzain Triton	Cruzain noTriton
O=c1cc(-c2ccccc2O)oc2ccc3ccccc3c12	2.4%	?
COC(=O)[C@@]1(Cc2ccc(OC)cc2)[C@H]2c3cc(C(=O)N4CCCC4)n(CCc4c[nH]c5ccc(OC)cc45)c3C[C@H]2CN1C(=O)c1ccccc1	-0.8%	?
CC(C)(C)OC(=O)NCCCC1=CC2=CC(=O)C(C)(OC(=O)C3CCCC3)C(=O)C2=CO1 (configuration not stated)	-3.1%	-8.2%
O=C1CCCC2[C@@H]3CCCN4CCC[C@@H](CN12)C34 (some centres not stated)	14.2%	2.8%
Nc1ncnc2c1ncn2[C@@H]1O[C@H](COP(=O)(O)OP(=O)(O)OP(=O)(O)O)[C@H]2OC3(O[C@H]21)C([N+](=O)[O-])=CC(=[N+]([O-])[O-])C=C3[N+](=O)[O-] (some centres not stated)	-1.7%	-8.6%
Nc1ccc(O)cc1	-10.3%	?
CO[C@H]1[C@@H](OC(N)=O)[C@H](O)[C@@H](Oc2ccc3c(O)c(NC(=O)c4ccc(O)c(CC=C(C)C)c4)c(=O)oc3c2C)OC1(C)C	-8.8%	?
C[C@H]1CC[C@]2(OC1)O[C@@H]1C[C@@H]3[C@@H]4CC[C@H]5C[C@@H](O)CC[C@]5(C)[C@@H]4CC(=O)[C@@]3(C)[C@H]1[C@@H]2C	4.5%	6.1%
COc1cccc(-c2cc(=O)c3cc(O)ccc3o2)c1	1.1%	9.3%
CCOC(=O)c1c(N)sc2c1CCN(Cc1ccccc1)C2	-12.0%	?
COc1ccc(-c2oc3ccc(C)cc3c(=O)c2O)cc1OC	9.9%	6.7%
O=C(O)C(Cl)Br (configuration not stated)	3.3%	-6.8%
COC(=O)c1nnc(C(=O)NCc2ccccc2)c2[nH]c3ccc(OC)cc3c12	-1.0%	-10.1%
CCCCC/C=C\C[C@@H](O)/C=C/C=C\CCC(=O)O	3.1%	-1.3%
CC[C@@]1(O)C(=O)COc2c1cc1n(c2=O)Cc2c-1nc1cccc(C(C)C)c1c2[Si](C)(C)C	-5.6%	-2.7%
CCCCC/C=C\C/C=C\C/C=C\CC1OC1CCCC(=O)O (configuration not stated)	1.3%	-2.6%
c1ccc2nc3ccccc3cc2c1	1.3%	-10.7%
COCCNc1nc(C)nc2c1nc(-c1ccccc1)n2CCN1CCCCC1	5.0%	1.0%
CCCC[C@@H]1C[C@H]1C(NC(=O)c1ccccc1)c1ccccc1 (some centres not stated)	-1.7%	-9.8%
C=C1C(=O)C=C2CN(C(=O)c3ccccc3)[C@@](Cc3ccc(OC)cc3)(C(=O)OC)[C@@H]12	-1.5%	1.2%
COc1cc2oc(-c3ccccc3)cc(=O)c2cc1OC	-4.7%	16.1%
COc1cc(OC)c2ccc(=O)oc2c1C(CCN1CCOCC1)c1ccc(N(C)C)cc1 (configuration not stated)	1.0%	-4.7%
CC(=O)N1[C@H](Cc2ccccc2)C=C[C@]1(C)C(=O)NCc1cc(F)cc(C(F)(F)F)c1	-3.8%	?
COc1ccc2nccc(C(=O)O)c2c1	-2.3%	1.7%
CCCCC/C=C\C/C=C\C/C=C\C/C=C\CCCCCC(=O)NCCCC(=O)O	4.1%	-11.0%
CC1(N)CCC(C(C)(C)N)CC1 (configuration not stated)	1.7%	1.7%
COC(=O)Cn1c(C(=O)N2CCCC2)cc2c1C[C@H]1CN(C(=O)c3ccccc3)[C@@](Cc3ccccc3)(C(=O)OC)[C@@H]21	-4.0%	?
COc1ccc2c(c1)O[C@@H](c1cccc(C(F)(F)F)c1)[C@H](OC(=O)Nc1ccc(C)c(Br)c1)C2=O	2.0%	?
Cc1cccc(-c2cc(=O)c3cc(C)ccc3o2)c1	-0.6%	2.6%
CC/C(C)=N/O	2.7%	-8.0%
COc1c(O)c(O)cc2c1oc1c3ccccc3oc(=O)c21	-15.2%	-0.3%
CC(C)C[C@@H](CC(=O)N[C@@H](CCC(=O)O)CC(=O)O)NC(=O)[C@@H]1CNCC[C@H]1NC(=O)C[C@@H](NC(=O)C[C@H](Cc1ccccc1)NC(=O)[C@@H]1CNCC[C@H]1N)C(C)C	1.5%	1.5%
CCC/C=C(\CCC)C(NS(=O)(=O)c1cccc2cccnc12)c1ccc(-c2ccccc2)cc1 (configuration not stated)	5.8%	-0.1%
COC(=O)[C@@]1(Cc2ccccc2)[C@H]2c3cc(C(=O)N4CCCC4)n(Cc4ccc(C(F)(F)F)nc4)c3C[C@H]2CN1C(=O)c1ccccc1	-1.4%	?
Nc1cc(C(=O)O)c(O)c(S(=O)(=O)O)c1	0.8%	0.1%
O=C(Cc1ccccc1I)Nc1ccccc1	-2.4%	-9.9%
O=[N+]([O-])c1cc([N+](=O)[O-])c2ccccc2c1	-5.4%	-4.5%
COC(=O)N[C@H](c1ccccc1)C(C(C)=O)C(=O)OC (some centres not stated)	-1.0%	2.8%
CN(C)C(=O)[C@]1(C)C[C@H]1[C@H](NC(=O)CNC(=O)[C@@H]1CCCN1C(=O)[C@]1(C)C[C@H]1[C@H](NC(=O)OCc1ccccc1)c1ccccc1)c1ccccc1	-13.2%	?
CN1CCC[C@@H](CC2c3ccccc3Sc3ccccc32)C1	-6.6%	-3.9%
Cc1ccc(Cl)cc1N	4.6%	-2.7%
C[N+]12CCC(CC1)[C@@H](OC(=O)C(O)(c1ccccc1)c1ccccc1)C2	-2.5%	-0.7%
COc1ccc(CNC(=O)[C@H](C)[C@H]2C[C@]2(C)[C@H](NC(=O)OCc2ccccc2)c2ccccc2)cc1OC	0.9%	28.3%
OCc1ccccc1	-1.0%	-6.2%
CCN(CC)CCCC(C)n1c(-c2ccccc2)nc2c(NCCO)nc(C)nc21 (configuration not stated)	1.0%	-1.7%
CC(C)[C@@H](CC(=O)N[C@@H]1CCCC[C@H]1C(=O)N[C@H](CC(=O)N[C@@H](CCC(=O)O)CC(=O)O)Cc1ccccc1)NC(=O)C[C@H](CO)NC(=O)[C@@H]1CNCC[C@H]1N	0.2%	6.2%
CCc1c2c(nc3ccc(OC)cc13)COC2	-0.8%	-3.1%
COc1cc2c(C)c3c4c(cc(OC)c(OC)c4c2cc1OC)CCN3C	-4.8%	?
CNc1ccc2oc(C[C@@H]3OC4(CC[C@@H]3C)O[C@H](C(C)C(=O)c3ccc[nH]3)[C@H](C)C[C@H]4C)nc2c1C(=O)O (some centres not stated)	7.0%	-13.8%
Cc1ccc2nc(-c3ccc(N)cc3)sc2c1S(=O)(=O)O	35.5µM*	20µM*
CC1(C)S[C@@H]2[C@H](NC(=O)[C@@H](N)c3ccc(O)cc3)C(=O)N2[C@H]1C(=O)O	-1.5%	-5.2%
Cc1csc(-c2nc3ccccc3n2C)n1	5.6%	0.6%
COc1ccc(C[C@@H]2c3cc(OC)c(OC)cc3CC[N@+]2(C)CCC(=O)OCCCCCOC(=O)CC[N@@+]2(C)CCc3cc(OC)c(OC)cc3[C@H]2Cc2ccc(OC)c(OC)c2)cc1OC	-2.1%	-14.8%

The list is partial; rates above refer to the full screens.
